Yeast UUG start: modulators of start codon recognition fidelity in yeast; S. cerevisiae UUG-firefly luciferase reporter, luminescence/redox ratio; activity score, % at 18.7 µM; 350,000 compounds, 0.13% hits; AID 602363;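 active = replicate mean at a twofold rise or more, about +100% in these data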;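 also: firefly luciferase made from a UUG start codon reports start codon fidelity; reporter light over untreated wells divided by growth signal over untreated wells; some hits fall short of that in this replicate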
MT1-MMP act inh: inhibitors of human MT1-MMP activation | P50281 | AID 651647 | HT1080 RFP-PRO-GFP cells, GFP/RFP ratio fluorescence, overnight; percent of plate control window, DMSO zero | GFP/RFP ratio change, % at 20 µM | 360,000 compounds, 0.061% hits;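 active = GFP/RFP ratio change of at least 30% with cell ATP level not reduced by more than half and red fluorescence within 50% of control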; also: strong numbers were not always called active
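Assay system: HT1080 cells carrying an RFP-PRO-GFP reporter | Dosing: Single dose of 20 µM compound, 1% DMSO final | Incubation: Cells overnight before dosing, compound overnight, 37 °C, 5% CO2 | Evaluation: GFP/RFP fluorescence ratio | Control set: DMSO and RFP-L50D-GFP cell wells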
PABP polyA inh: PABP-poly(A) binding inhibition; P11940; PABP-poly(A) RNA binding, fluorescence polarization; inhibition, % at 35 µM; 290,000 compounds, 1% hits; AID 2014;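 active = 50% or more with normal probe brightness, or confirmed in later tests; about a fifth of its hits are not listed in these tables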;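 also: calls also rest on retests at 20 µM and on dose response follow-up; controls were probe without protein and protein plus probe with vehicle; some compounds called inactive have numbers as strong as hits; many hits fall short of the cut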
Target sequence (P11940 whole entry, looked up): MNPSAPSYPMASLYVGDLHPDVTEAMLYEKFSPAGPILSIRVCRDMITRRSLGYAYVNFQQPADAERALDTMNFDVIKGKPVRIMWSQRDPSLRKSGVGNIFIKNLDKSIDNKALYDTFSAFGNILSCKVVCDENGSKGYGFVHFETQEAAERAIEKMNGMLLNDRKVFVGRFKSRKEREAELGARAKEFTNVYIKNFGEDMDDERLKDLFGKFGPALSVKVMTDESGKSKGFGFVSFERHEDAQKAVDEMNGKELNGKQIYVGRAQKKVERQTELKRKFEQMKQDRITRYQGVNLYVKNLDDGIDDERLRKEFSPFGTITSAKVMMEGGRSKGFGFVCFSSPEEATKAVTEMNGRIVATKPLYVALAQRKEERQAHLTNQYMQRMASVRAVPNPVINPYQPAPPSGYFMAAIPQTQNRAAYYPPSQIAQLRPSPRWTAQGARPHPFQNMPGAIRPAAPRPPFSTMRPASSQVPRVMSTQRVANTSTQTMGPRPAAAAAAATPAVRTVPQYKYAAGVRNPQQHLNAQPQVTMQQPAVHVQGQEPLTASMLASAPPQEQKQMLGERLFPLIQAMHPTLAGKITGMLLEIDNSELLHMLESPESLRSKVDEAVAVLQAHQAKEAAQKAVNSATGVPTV
Rce1 inhib: inhibitors of yeast Ras-converting enzyme; AID 2563; calls only; 290,000 compounds, 0.27% hits; Q03530; yeast membranes, quenched prenylated peptide cleavage fluorescence;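 active = fall in fluorescence gain of 50% or more versus controls, with final raw signal at or below 3038400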;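 also: plate controls were neutral control wells for no effect and wells lacking membranes for full effect; tested at 10 µM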
Target sequence (Q03530 whole entry, looked up): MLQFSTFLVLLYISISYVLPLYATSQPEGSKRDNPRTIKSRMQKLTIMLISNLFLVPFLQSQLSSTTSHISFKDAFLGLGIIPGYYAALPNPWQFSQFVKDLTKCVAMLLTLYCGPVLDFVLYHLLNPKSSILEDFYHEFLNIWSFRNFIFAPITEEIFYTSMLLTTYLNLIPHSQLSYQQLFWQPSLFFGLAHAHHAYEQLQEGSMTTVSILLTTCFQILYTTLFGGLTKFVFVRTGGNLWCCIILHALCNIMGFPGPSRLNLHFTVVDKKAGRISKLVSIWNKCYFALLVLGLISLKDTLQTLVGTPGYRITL
CSC inhib: blocks cancer stem cells | cancer stem cell-like cells viability, luminescence | inhibition, % at 7.5 µM | 300,000 compounds, 1.1% hits | AID 2717;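 active = mean at 75% or more and at least half the replicates too; tested in HMLE shEcad cells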;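 also: 0% = median of negative and 100% = median of positive control wells; the first replicate is given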
Env fusion inh: blocks HIV Env-driven cell-cell fusion | HeLa-JRFL Env/CEM21 cell fusion, luciferase | inhibition, % at 12.3 µM | 360,000 compounds, 1.1% hits | AID 651610;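 active = mean replicate inhibition score of at least 50 and every replicate individually at or above 50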;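 also: 0% = plate neutral controls and 100% = maraviroc near 300 nM; one replicate is shown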
eIF4H FP inh: inhibitors of RNA binding by human eIF4H. inhibition, % at 35 µM. AID 2012. 290,000 compounds, 0.94% hits. Q15056. eIF4H fluorescence polarization binding assay;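 active = 50% or more with normal probe brightness, or confirmed in later tests; about a fifth of its hits are not listed in these tables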;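 also: calls also rest on retests at 20 µM and on dose response follow-up; 0% = protein and probe with vehicle and 100% = probe without protein; strong numbers were not always called active; many hits fall short of the cut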
eIF4H FP inh retest: second read-out of eIF4H FP inh, no call of its own (marks repeat the call); inhibition, %; compound at 20 µM; confirmation average;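 mean of two retest wells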
PABP polyA inh retest: second read-out of PABP polyA inh, no call of its own (marks repeat the call); inhibition, %; compound at 20 µM; confirmation repeats;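 mean of two retest wells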
MT1-MMP act inh RFP: further read-out of MT1-MMP act inh, marked with its call; RFP signal change, %; measured here: RFP expression control read;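 0 = vehicle wells; hits needed this value within 50% of zero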
Starred values were filed as active, the others as inactive; i = inactive; nt = no result given; & = joins results of further samples; [ ] = remark or other dose.

SMILES | Yeast UUG start | MT1-MMP act inh | MT1-MMP act inh RFP | PABP polyA inh | Rce1 inhib | CSC inhib | Env fusion inh | eIF4H FP inh | others
COCCCN1C(=O)C(CC(=O)NCC2CCCCC2)CC(C(=O)N2CCOCC2)=C1C (configuration not stated) | -9.7 | 1.4 | -3.4 | nt | nt | nt | 17.7 | nt
CN(Cc1ccc(Cl)s1)C(=O)CNC(=O)CNC(=O)c1ccc(Cl)cc1Cl | -6.4 | 3.4 | 0.1 | nt | nt | -4.1 | nt | nt
COCCN(CCOC)S(=O)(=O)c1ccc(C(=O)Nc2nc(C)c(C(C)=O)s2)cc1 | -8.4 | 8.3 | -2.0 | -5.9 | i | 5.7 | nt | -1.6
COC(=O)c1nn(-c2ccc(OC)cc2)c(=O)cc1Oc1cccc(Cl)c1 | 0.5 | -2.0 | -0.7 | -5.8 | i | 13.1 | -11.1 | 2.3
CCn1ncc(Br)c1C(=O)Nc1sc2c(c1C(N)=O)CCC2 | -25.7 | -13.8 | -9.8 | 18.4 | i | 4.9 | nt | 5.7
CCOC(=O)C1(CC2CCCCO2)CCN(C(=O)Nc2ccccc2SC)CC1 (configuration not stated) | nt | 4.6 | 2.6 | 2.8 | i | -0.7 | -6.9 | -1.5
CC(=O)Nc1ccc(C(=S)NCCCO)cc1 | nt | -3.4 | 0.8 | 26.4 | i | 14.0 | 2.0 | 1.6
COc1ccc(C2C(C#N)=C(N)OC(C(C)(C)C)=C2C#N)cc1OC (configuration not stated) | -11.6 | -0.1 | 4.4 | 14.2 | i | -3.0 | nt | 2.7
Cc1ccc(-c2cnc3c(c2)C(=O)N([C@H](C)CO)C[C@@H](C)[C@@H](CN(C)C(=O)Cc2ccccc2)O3)cc1 | -26.2&19.6&2.3 | 0.4 | 3.7 | nt | nt | nt | 19.8&3.4[16.7 µM] | nt
O=C1c2cc(N3CCCC3)c([N+](=O)[O-])cc2C(=O)N1c1ccccc1 | -12.4 | 4.0 | 1.2 | -8.0 | i | -9.1 | 11.5 | 8.9
CC1(C)CC2CC(C)(CN2S(=O)(=O)c2ccc(C(=O)Nc3cccc(S(=O)(=O)N4CCOCC4)c3)cc2)C1 (configuration not stated) | -10.5 | -13.1 | -31.1 | -1.6 | i | nt | 24.9 | -1.7
CCCCc1nnc(NC(=O)c2cccc(S(=O)(=O)N3CCN(C)CC3)c2)s1 | -13.6 | -3.2 | -7.3 | 39.3 | i | nt | nt | -5.4
O=C(O)c1cc(-c2cccc([N+](=O)[O-])c2)n[nH]1 | -10.4 | 3.8 | 3.5 | 4.5 | i | 4.5 | 0.7 | 8.0
CCn1cc(C(=O)NCc2ccco2)c(=O)c2ccc(C)nc21 | nt | 1.8 | 0.4 | 7.8 | i | -5.9 | -4.2 | -7.3
COc1ccccc1C(=O)Nc1cc2c(cc1C(=O)O)OCCCO2 | -8.1 | 1.3 | 0.0 | 9.6 | i | -13.7 | -12.1 | -10.2
O=C(COc1cccc2ccccc12)N/N=C/C=C/c1ccccc1 | nt | -2.6 | -0.9 | 38.6 | nt | 16.4 | -13.2 | 6.7
CCOC(=O)NCC(C)(C)CNC(=O)OCC | -22.3 | -1.3 | 2.1 | -5.0 | i | -13.1 | -22.4 | -12.1
Cc1ccc(OCCn2c(=O)sc3ccccc32)cc1 | -14.3 | 1.9 | -2.0 | -13.9 | i | 4.4 | nt | -4.2
COc1ccc(Cn2nnnc2CN2CCC(c3nc4ccccc4s3)CC2)cc1 | -26.4 | -3.8 | -11.7 | -9.4 | i | 9.4 | 46.9 | 6.6
COc1ccc(CCN(Cc2cccs2)S(=O)(=O)c2ccc(C(=O)O)cc2)cc1OC | nt | 1.4 | -0.7 | -0.1 | i | -39.3 | -25.6 | -6.0
CCCn1c(SCC(=O)Nc2nnc(CC)s2)nnc1-c1ccco1 | -7.8 | -8.4 | 1.7 | -1.0 | i | -5.0 | nt | 12.0
O=C(c1cccc([N+](=O)[O-])c1)c1ccc2c(c1)C(=O)N(c1c[nH]c(=O)[nH]c1=O)C2=O | nt | nt | nt | -7.1 | i | nt | nt | -2.0
CN(CCNC(=O)c1cc2c(=O)n(C)c3ccccc3c2n1C)Cc1ccccc1 | -2.4 | 1.3 | 0.5 | -8.0 | i | 1.9 | -14.6 | -6.6
Brc1ccc(Cn2c(-c3ccc(Br)o3)nc3ccccc32)o1 | nt | -4.3 | -5.0 | -3.0 | i | nt | 7.6 | 33.0
CCCCNc1nc2c(-c3ccccc3)nnn2c2ccccc12 | nt | 2.0 | 3.2 | -5.4 | i | -18.6 | 1.3 | 2.0
Cc1cc(C)c(NC(=O)COC(=O)/C=C/c2cccc(C(F)(F)F)c2)c(C)c1 | nt | 0.1 | 3.6 | 2.0 | i | -2.5 | 2.6 | 0.8
Cc1ccc(C(=O)Nc2cccc3ccccc23)cc1 | -10.0 | -0.5 | -1.0 | -4.1 | i | -4.5 | -12.7 | 4.3
Cc1onc(-c2c(Cl)cccc2Cl)c1C(O)c1ccccc1 (configuration not stated) | -7.8 | 0.0 | 3.8 | -6.5 | i | -0.4 | 2.6 | -5.7
O=C(NNC(=O)c1cc(-c2ccccc2)nc2ccccc12)Nc1cccc(Cl)c1 | -6.4 | 1.0 | -19.1 | 5.4 | i | 59.8 | nt | 0.1
Cc1nn(-c2ccccc2)c(C)c1C(=O)OCC(=O)N(C)c1c(N)n(Cc2ccccc2)c(=O)[nH]c1=O | nt | 0.8 | 1.9 | nt | i | nt | 8.0 | nt
O=C(NC1CCCCC1)N(C1=NCCCCC1)c1ccc(Br)cc1 | -34.2 | 3.5 | 5.2 | -16.4 | i | 5.3 | -18.9 | -4.7
CCOC(=O)c1ccc(CC(=O)c2ccc(O)cc2O)o1 | nt | -0.6 | -3.2 | 6.9 | i | 24.6 | nt | 2.8
CCCS(=O)(=O)NC(=O)C1(C)CCCN(C(=O)c2ccco2)C1 (configuration not stated) | -18.7 | 1.9 | 3.2 | nt | nt | nt | -4.7 | nt
CC(CCc1ccco1)N(C)S(=O)(=O)c1csc(C(N)=O)c1 (configuration not stated) | -7.3 | 0.7 | -3.1 | 8.5 | i | -2.0 | -11.7 | -11.5
COc1ccc(NC(=S)NCCCN2CCCC2)cc1Cl | -25.6 | 0.0 | 4.0 | 8.2 | i | -19.4 | -10.3 | 2.9
CC(O)C(O)C(O)C(O)/C=N/NC(=O)c1ccccc1 (configuration not stated) | nt | 2.1 | 7.4 | -7.0 | i | 0.1 | -68.4 | -2.0
CC1CCC(NC(=O)c2nn(C)c3c2CS(=O)(=O)c2ccccc2-3)CC1 (configuration not stated) | -12.1 | 0.7 | 0.4 | -0.1 | i | 3.9 | -1.3 | 1.6
COc1ccccc1S(=O)(=O)N(C)C[C@@H]1Oc2cc(C#CCC(C)C)ccc2S(=O)(=O)N([C@H](C)CO)C[C@@H]1C | 1.0&9.1&-8.6 | -17.0 | -16.8 | nt | nt | nt | -8.0 | nt
CS(=O)(=O)N(Cc1ccc(Cl)cc1)c1ccc(C(=O)NCCSc2ccccn2)cc1 | 0.1 | -16.8 | -0.5 | 11.5 | i | 0.7 | 84.7* | 0.2
O=S1(=O)c2c(F)cccc2OC(COCc2ccccc2)CN1C1CCCC1 (configuration not stated) | -8.6 | -1.6 | -10.4 | nt | nt | nt | -2.5 | nt
O=C(CNC(=O)Cc1ccc(Cl)cc1)NCC(=O)N1CCCCC1 | 1.9 | 1.7 | 3.1 | 8.2 | i | -5.3 | -122.8 | -9.3
C=CCOc1ccc(/C=N/N2C(=O)C(CC(=O)Nc3ccc(F)cc3F)SC2=NC)cc1 (configuration not stated) | nt | 0.7 | -5.1 | 9.6 | i | 19.3 | 16.4 | 2.9
COc1ccc(C2CC(C(F)(F)F)n3nc(C(=O)O)cc3N2)cc1 (configuration not stated) | nt | -5.1 | -2.2 | -1.0 | i | -0.8 | 8.9 | -7.2
O=C(NC1CC(=O)N(c2ccccc2)C1)C(=O)c1c[nH]c2ccccc12 (configuration not stated) | -6.3 | 4.4 | 1.9 | nt | i | -9.4 | 61.5* | nt
CCOc1ccc(C(=O)NCC(=O)OCc2ccc(F)cc2Cl)cc1 | nt | 1.6 | 2.2 | 111.0 | i | -11.0 | -6.8 | -11.7 | eIF4H FP inh retest=22.8;PABP polyA inh retest=38.0
COc1ccc(Cl)cc1NC(=O)c1sc2nc(C)nc(N3CCOCC3)c2c1C | -9.5 | 1.7 | -8.4 | -4.6 | i | 8.0 | 12.3 | -9.3
Cc1ccc(OCCOC(=O)CN2C(=O)NC3(CCCC3)C2=O)cc1 | -13.9 | 3.4 | 2.0 | nt | i | -2.8 | -9.0 | nt
NC(CO)C(O)c1ccc([N+](=O)[O-])cc1 (configuration not stated) | -13.8 | 2.9 | 4.3 | 3.5 | i | -11.2 | nt | -5.7
COc1cccc(CNC(=O)C(C(=O)NCc2cccc(OC)c2)c2ncc(C(F)(F)F)cc2Cl)c1 | nt | -3.8 | 1.8 | 84.1 | i | 7.7 | 9.6 | 3.6 | eIF4H FP inh retest=-3.6;PABP polyA inh retest=5.3
CC(=NNC(N)=S)c1ccc2cc3c(cc2c1)OCO3 | -14.9 | 5.7 | -7.5 | nt | nt | nt | 1.1 | nt
NC(=O)CSc1nc2cccnc2n1-c1ccc(F)cc1 | 6.3 | -2.1 | -4.3 | -14.4 | i | 22.4 | 9.8 | 6.7
CCCCc1cc2c(s1)CCCC/C2=N/O | nt | 0.5 | -0.5 | -8.4 | i | 33.1 | 2.4 | -5.3
COC(=O)c1c(NC(=O)CN2C(=O)NC3(CCCCC3C)C2=O)sc2c1CCC2 (configuration not stated) | -23.7 | 4.5 | -3.9 | nt | nt | -0.1 | 1.2 | nt
CCN(CC)C(=O)C(C)N(C#N)c1nc(Cl)nc(N(C)C)n1 (configuration not stated) | -5.7 | -1.2 | 2.2 | -5.8 | i | -0.9 | 3.5 | 0.0
Cc1cccc(N2CCN(C(=O)N3CCCCC3)CC2)c1C | nt | -2.7 | 2.2 | -4.7 | i | -5.2 | -1.9 | -6.7
CC(=O)NCCNC(=O)C1Cc2c(-c3ccccc3)ccnc2O1 (configuration not stated) | -14.9 | 3.9 | 5.2 | nt | nt | nt | -6.7 | nt
CC(C)(C)NC(=O)CSc1nc(-c2ccccc2)cc(=O)[nH]1 | -10.6 | -1.0 | -1.0 | -0.7 | i | -11.8 | 9.3 | -5.7
CCNC(=S)/N=C(/Nc1ccc(OC)cc1)Nc1nc(C)cc(C)n1 | -14.8 | -2.7 | 0.7 | -7.1 | i | -20.9 | -20.9 | 11.8
CCOC(=O)c1c(C)[nH]c(C(=O)OCc2c(C)noc2C)c1C | -8.6 | -2.7 | -13.2 | 1.5 | i | nt | nt | 6.5
FC(F)(F)c1cccc(Cc2noc(CN3CCC(c4ccncc4)CC3)n2)c1 | -4.9 | -14.9 | -29.5 | -17.4 | i | 48.0 | 23.3 | -5.7
c1cncc(Oc2cccc(Oc3cccnc3)c2)c1 | -22.3 | 13.8 | -2.5 | 0.1 | nt | 3.7 | nt | 7.9

Source: PubChem
